# Vif A3G = HIV-1 Vif–A3G interaction blockers – biochemical, TR-FRET, GST-Vif 1-94, biotin-A3G peptide, dose response retest, primary screen (AID 1117319); inhibition, %, or IC50 in µM where a hit was titrated; hit rate 0.57% among 260,000; TR-FRET GST-Vif / biotin-A3G peptide binding; higher % means a stronger effect; test concentration not given here; strong numbers were not always called active;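 active means above the screen mean plus three standard deviations and confirmed in dose response; inconclusive means results disagree or hit not tested in dose response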;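 further: Vif residues 1-94 fused to GST binding biotinylated APOBEC3G peptide 110-148; 0% = full assay without inhibitor and 100% = GST in place of GST-Vif; retest series ran down from 100 µM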
# LANA-H2B inh = blocks KSHV LANA binding to histone H2A/H2B; cell-free LANA-H2A/H2B peptide, fluorescence polarization; inhibition, % (concentration not given with the values); hit rate 0.6% among 320,000; in the data active means inhibition mostly above about 10%, no sharp cut-off; inactive means mostly below about 6.7%;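 further: stock transfer was 7.5 nL into about 10 µL; 0% = median of vehicle wells and 100% = median of positive control wells; one replicate is shown; the record names a cut of 25% in any replicate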
# Beta2AR agonist = human beta-2 adrenergic receptor agonism by FAP | P07550 | Am2.2-beta2AR cells, FAP receptor internalization, flow cytometry; reference of the scale not given here | response, % (concentration not given with the values) | hit rate 0.43% among 340,000;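 active means response above a set limit, near 3 SD of response in nonfluorescent compounds, cut at about 42% in these data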;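 further: stock transfer was 100 nL into about 11 µL; a reference agonist was the positive control; negative values mostly stem from fluorescent compounds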
# Target sequence (P07550 whole entry, looked up): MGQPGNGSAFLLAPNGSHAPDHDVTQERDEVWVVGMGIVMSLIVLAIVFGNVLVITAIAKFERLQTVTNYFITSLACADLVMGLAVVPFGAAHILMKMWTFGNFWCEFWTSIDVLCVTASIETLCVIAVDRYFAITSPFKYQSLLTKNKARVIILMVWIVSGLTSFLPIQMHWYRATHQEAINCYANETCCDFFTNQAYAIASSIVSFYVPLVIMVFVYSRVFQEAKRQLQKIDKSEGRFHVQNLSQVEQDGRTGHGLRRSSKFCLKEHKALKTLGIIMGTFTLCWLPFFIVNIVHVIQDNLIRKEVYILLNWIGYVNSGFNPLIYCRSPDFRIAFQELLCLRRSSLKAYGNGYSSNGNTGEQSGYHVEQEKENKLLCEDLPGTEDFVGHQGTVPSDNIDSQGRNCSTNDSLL
# RanGTP-Imp inh = disruptors of Ran-importin-beta complex formation – biochemical, FRET, CFP-Ran, YFP-importin-beta, homogeneous, primary screen; inhibition, % (concentration not given with the values); AID 2216; hit rate 1.1% among 300,000; cell-free CFP-Ran/YFP-importin-beta FRET ratio;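 active means most replicates above 15%; inconclusive means exactly half above 15%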;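 further: 0% = DMSO wells and 100% = Ran loaded with GDP instead of GTP; wells of about 40 µL received 100 nL stock; the first replicate is given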
# HNF4A DNA FP = change in binding of human HNF4 alpha to DNA; P41235; HNF4a-FITC DNA binding, fluorescence polarization, 1 h; activity change, % at 10 µM; hit rate 0.3% among 360,000; AID 1224865; in the data active means activity change above about 30%, passing the limit was not always enough;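 further: controls were the assay level and a saturating level of protein; the project sought stronger binding though the title names inhibitors; some compounds called inactive have numbers as strong as hits; positive values seem to mean higher polarization but the record does not say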
# Calb FLC = affects C. albicans growth with fluconazole | C. albicans CaCi-2 (fluconazole-resistant clinical isolate) + fluconazole, Alamar Blue growth, 48 h | growth inhibition, % (no concentration beside the values) | hit rate 0.57% among 300,000 | AID 1979;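 active means most replicates above 75%; inconclusive means exactly half above 75%; inactive means most below 75%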;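 further: all wells also contain fluconazole at 8 µg/ml as a sub-toxic cotreatment; 0% = median of DMSO wells and 100% = median of geldanamycin control wells; wells of about 8 µL received 7.5 nL stock; the first replicate is given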
# ALR H2O2 inh = blocks human ALR sulfhydryl oxidase activity; hit rate 3.8% among 290,000; purified ALR, DTT oxidation, H2O2 HRP-luminol luminescence; inhibition, % (concentration not given with the values);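 active means mean and each replicate at 75% or more; inconclusive means only one of the two met; inactive means neither met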;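 further: stock transfer was 7.5 nL into about 7.5 µL; 0% = neutral wells and 100% = wells with inactivated enzyme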
# Target sequence (P55789 whole entry, looked up): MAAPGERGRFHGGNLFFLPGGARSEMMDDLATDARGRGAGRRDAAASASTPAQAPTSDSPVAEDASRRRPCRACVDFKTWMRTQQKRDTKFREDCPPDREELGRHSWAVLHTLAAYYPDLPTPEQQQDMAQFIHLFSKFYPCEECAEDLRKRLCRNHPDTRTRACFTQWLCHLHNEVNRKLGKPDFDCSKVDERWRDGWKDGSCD
# Numbers without * were called inactive; ? = inconclusive; . = not tested or not shown; & = joins results of further samples.
SMILES,Vif A3G,LANA-H2B inh,Beta2AR agonist,RanGTP-Imp inh,HNF4A DNA FP,Calb FLC,ALR H2O2 inh
O=C(C[n+]1ccc(C(=O)NCc2ccccc2)cc1)c1ccc(Cl)cc1,4%,8.6,-4,7.1,-0.1,-3,14
O=C(Nc1ccc2c(c1)OCO2)C1CCN(C(=O)c2cccs2)CC1,20%,.,-5,-1.0,2.4,7,.
CCCCOc1cccc(C2C(C(=O)c3cccs3)=C(O)C(=O)N2Cc2cccnc2)c1 (centres undefined),-5%,-2.4,-2,4.6,-2.0,-14,32
CNC(=O)c1cc2cc(OC)ccc2oc1=N,7%,0.4,-4,?,2.6,-2,-2
Cc1nn(CC(=O)NCCN2CCOCC2)c(C)c1[N+](=O)[O-],4%,-2.5,-1,5.0,-0.8,-4,-7
Cc1csc(SCC(=O)NCc2ccccc2)n1,-1%,-4.1,11,-1.2,2.8,-1,.
CC12CCC(=O)N1C(C(=O)N1CCN(S(=O)(=O)c3cccc(Cl)c3)CC1)CS2 (centres undefined),3%,-3.0,-5,-2.2,-3.1,5,.
Cc1cccc(C(=O)NCC(=O)Nc2ccc(S(=O)(=O)Nc3nc(C)cc(C)n3)cc2)c1,.,-0.4,-3,4.8,0.6,9,1
Cc1sc2nc(SC3CCOC3=O)n(Cc3ccccc3)c(=O)c2c1C (centres undefined),0%,-7.1,-13,0.4,4.1,8,-9
COc1ccc(Cl)cc1S(=O)(=O)N(C)CC(=O)NCCCn1ccnc1,-2%,-1.8,-11,-1.5,-3.8,-7,-1
COc1cccc(C(=O)N2CCN(Cc3ccccn3)CC2)c1OC,0%,-0.1,0,1.7,0.1,-1,-5
CCN(CC)CCNC(=O)c1cc2c(=O)n(C)c3ccccc3c2s1,-10%,0.8,2,8.4,-0.3,2,-4
Cc1ccn2c(NC(C)(C)C)c(-c3cccs3)nc2c1,3%,-1.1,1,-7.4,0.1,-2,99*
COc1ccc(C(C)NC(=O)CC23CC4CC(CC(C4)C2)C3)cc1 (centres undefined),-3%,-8.3,-4,2.0,-0.9,-12,.
CCOC(=O)COc1c(Br)cc(/C=C2\SC(=O)N(CC(=O)N3CCCC3)C2=O)cc1OC,6%,0.4,39,2.9,1.0,-11,.
C[C@H](NS(=O)(=O)c1ccccc1)C(=O)N1CCN(C(c2ccccc2)c2ccccc2)CC1,1%,2.3,13,.,2.2,.,-2
NC(=O)c1ccc[n+](CC(=O)c2ccccc2)c1,-9%,0.1,5,-0.4,-1.8,1,-7
CCOc1ccc(C(=O)CCC(=O)N2CCN(S(=O)(=O)c3cccc(F)c3)CC2)cc1,-9%,-4.7,3,.,-1.8,.,-4
CC(C)(C)NC(=O)COC(=O)c1ccc(S(=O)(=O)N2CCCC2)cc1,16%,-0.6,4,-0.9,0.9,-10,-8
COc1ccc(Nc2nccc(-c3ccc([N+](=O)[O-])cc3)n2)cc1,3%,-3.3,3,0.4,2.8,-9,.

# Given with bars between the fields: part of the list above.
molecule | Vif A3G | LANA-H2B inh | Beta2AR agonist | RanGTP-Imp inh | HNF4A DNA FP | Calb FLC | ALR H2O2 inh
O=C(C[n+]1ccc(C(=O)NCc2ccccc2)cc1)c1ccc(Cl)cc1 | 4% | 8.6 | -4 | 7.1 | -0.1 | -3 | 14
O=C(Nc1ccc2c(c1)OCO2)C1CCN(C(=O)c2cccs2)CC1 | 20% | . | -5 | -1.0 | 2.4 | 7 | .
CCCCOc1cccc(C2C(C(=O)c3cccs3)=C(O)C(=O)N2Cc2cccnc2)c1 (centres undefined) | -5% | -2.4 | -2 | 4.6 | -2.0 | -14 | 32
CNC(=O)c1cc2cc(OC)ccc2oc1=N | 7% | 0.4 | -4 | ? | 2.6 | -2 | -2
Cc1nn(CC(=O)NCCN2CCOCC2)c(C)c1[N+](=O)[O-] | 4% | -2.5 | -1 | 5.0 | -0.8 | -4 | -7
Cc1csc(SCC(=O)NCc2ccccc2)n1 | -1% | -4.1 | 11 | -1.2 | 2.8 | -1 | .
CC12CCC(=O)N1C(C(=O)N1CCN(S(=O)(=O)c3cccc(Cl)c3)CC1)CS2 (centres undefined) | 3% | -3.0 | -5 | -2.2 | -3.1 | 5 | .
Cc1cccc(C(=O)NCC(=O)Nc2ccc(S(=O)(=O)Nc3nc(C)cc(C)n3)cc2)c1 | . | -0.4 | -3 | 4.8 | 0.6 | 9 | 1
Cc1sc2nc(SC3CCOC3=O)n(Cc3ccccc3)c(=O)c2c1C (centres undefined) | 0% | -7.1 | -13 | 0.4 | 4.1 | 8 | -9
COc1ccc(Cl)cc1S(=O)(=O)N(C)CC(=O)NCCCn1ccnc1 | -2% | -1.8 | -11 | -1.5 | -3.8 | -7 | -1
COc1cccc(C(=O)N2CCN(Cc3ccccn3)CC2)c1OC | 0% | -0.1 | 0 | 1.7 | 0.1 | -1 | -5
CCN(CC)CCNC(=O)c1cc2c(=O)n(C)c3ccccc3c2s1 | -10% | 0.8 | 2 | 8.4 | -0.3 | 2 | -4
Cc1ccn2c(NC(C)(C)C)c(-c3cccs3)nc2c1 | 3% | -1.1 | 1 | -7.4 | 0.1 | -2 | 99*
COc1ccc(C(C)NC(=O)CC23CC4CC(CC(C4)C2)C3)cc1 (centres undefined) | -3% | -8.3 | -4 | 2.0 | -0.9 | -12 | .

# Continued:
SMILES,Vif A3G,LANA-H2B inh,Beta2AR agonist,RanGTP-Imp inh,HNF4A DNA FP,Calb FLC,ALR H2O2 inh
COc1ccc(CNC(=O)c2noc(C)c2[N+](=O)[O-])cc1,-1%,-0.6,0,-2.6,1.4,13,-1
O=C(Nc1nccs1)c1ccccc1Br,-9%,2.3,-3,1.5,0.9,-2,14
CC(C)(C)c1ccc(OCCC(=O)OCC(=O)NC2CCS(=O)(=O)C2)cc1 (centres undefined),5%,1.4,9,-1.4,-2.8,-2,-12
CSc1nnc2ccc(-c3cccs3)nn12,-2%,-0.3,-12,?,-1.2,6,-9
NC(=O)C1(N2CCCCC2)CCN(C(=S)Nc2cccc(Cl)c2)CC1,.,-2.2,1,5.8,-1.3,-2,-4
Cc1ccc(S(=O)(=O)Oc2ccccc2N2C(=O)C3CC=CCC3C2=O)cc1 (centres undefined),-3%,8.7,-19,-2.3,0.9,-5,-3
COc1ccc(/C=C/C(=O)Nc2cc(S(=O)(=O)N3CCOCC3)ccc2OC)cc1,-6%,1.8,9,.,5.2,.,-4
CCSc1nc(N)c2c3c(sc2n1)CCC3,12%,5.5,-12,9.1,2.4,10,39
COc1ccccc1N1CCN(C(=O)c2cccc(S(=O)(=O)Nc3ccccc3F)c2)CC1,.,0.8,5,.,2.5,.,6
COc1ccc(CCNc2c(N)n(Cc3ccccc3)c(=O)[nH]c2=O)cc1OC,4%&-5%,6.3,0,11,-3.7,9,.
O=C1OC(Nc2ccc3c(c2)OCO3)c2ccccc21 (centres undefined),?,-3.1,4,?,1.1,-1,99*
CC(C)(C)CC(=O)NCCc1csc(-c2ccccc2)n1,8%,7.1,-1,3.5,3.1,-4,-2
COc1ccccc1NS(=O)(=O)c1cccc(NC(=O)NCCCl)c1,12%,-5.6,3,1.8,2.2,-2,-4
O=c1oc(C2(O)CCCCC2)cc2ccc(/C=C/c3ccc(F)cc3)cc12,.,-0.2,24,.,1.1,.,-2
Cc1c(NC(=O)COC(=O)C2=COCCO2)cccc1[N+](=O)[O-],3%,0.1,3,-3.3,-2.6,-3,.
Cc1ccc(NC(=S)NNC(=S)Nc2cccc(C(F)(F)F)c2)cc1,17%,-1.4,-2,-4.0,-1.4,16,1
CC(=O)N1N=C(c2cccc(Cl)c2)OC1c1ccc(C(C)C)cc1 (centres undefined),31%,3.9,-5,7.1,1.0,-2,2
O=C(/C=C/c1ccccc1Cl)Nc1ccc(-c2nnc3n2CCCCC3)cc1,4%,-3.5,0,-3.0,1.8,2,-6
CC(C)CNC(=S)N1CCC(C(=O)c2ccc3c(c2)OCCO3)CC1,-1%,0.2,8,3.9,-4.1,-21,-5
CC1CCN(C(=O)c2ccc([N+](=O)[O-])o2)CC1,.,5.8,12,-1.2,0.3,4,-32
CCCNc1sc(S(=O)(=O)CCC)nc1S(=O)(=O)c1ccc(C)cc1,18%,-1.0,-9,6.4,-0.6,-21,-10
Cc1cc2c(=O)n(Cc3ccco3)c(SCC(=O)NCc3ccco3)nc2s1,1%,-2.6,-3,-1.7,-4.8,14,-3
Cc1nn(C)c(Cl)c1/C=N/OC(=O)c1ccc(F)cc1,-7%,-1.3,2,0.4,-3.2,13,.
CCOC(=O)c1ccccc1N/C=C1\CCCC1=O,22%,1.8,7,-3.0,3.9,-2,-19
COc1ccc(NC2CCCN(C(=O)COc3ccc(Cl)cc3C)C2)cc1OC (centres undefined),7%,-0.4,10,-0.6,-0.1,19,96*
Cc1ccc(Nc2n[nH]c(=S)s2)cc1F,-4%,.,6,.,-2.8,.,.
CC(C)Sc1cc(Cl)nc(NC(=O)Nc2ccccc2)n1,4%,-3.4,6,2.9,3.0,3,0
CC(=O)NNC1=Nc2ccccc2N(C)C(C)C1 (centres undefined),-13%,.,4,-0.4,0.3,2,.
CCOC(=O)C1CCN(S(=O)(=O)Cc2ccccc2)C1=O (centres undefined),5%,6.6,12,0.6,-3.5,-12,13
CC(C)CC1(C)NC(=O)N(CC(=O)Nc2ccc(F)c(F)c2F)C1=O (centres undefined),-6%,-2.1,-6,.,-0.4,.,.
Cc1cc(C)cc(NS(=O)(=O)c2coc(C(N)=O)c2)c1,-4%,-1.9,2,-5.7,1.1,5,20
COc1ccccc1CC(=O)N1CCOCC1,.,0.8,1,-0.8,-1.2,-1,-2
CCOC(=O)C1=C(C)OC(N)=C(C#N)C1c1ccc(C)o1 (centres undefined),7%,2.9,8,-0.4,-2.3,11,-2
CCC[C@@H](CNC)NC[C@H](Cc1ccccc1)NCCCCc1ccccc1,.,3.6,35,-0.9,0.1,-30,-2
COc1ccc(C(=O)Nc2ccnn2C2CCN(Cc3ccn[nH]3)CC2)cc1,.,2.3,-7,-2.1,-3.2,-1,-2
Cc1c(OCC(=O)N2C[C@H]3C[C@@H](C2)c2cccc(=O)n2C3)ccc2c3c(c(=O)oc12)CCCC3,.,1.7,-3,2.8,3.9,-2,-2
O=C(CC1NC(=O)NC1=O)Nc1ccc(Cl)cc1 (centres undefined),-1%,1.1,3,1.8,-2.1,7,3
COc1ccc(-c2ccc3c(c2)S(=O)(=O)c2cccc(C(=O)NCCOc4ccccc4)c2C3=O)cc1OC,.,6.5,0,.,12,.,2
COc1ccc(NC(=O)C(CC(C)C)NC(=O)C2CCC(C)CC2)c(OC)c1 (centres undefined),24%,3.4,-2,-2.8,5.3,-13,-8
Cc1cc2oc(=O)cc(CN3CCN(S(=O)(=O)c4ccc5c(c4)OCCO5)CC3)c2cc1C,-10%,3.3,7,0.7,0.1,-1,.
COc1ccc(N(C)S(=O)(=O)c2cccc(C(=O)Nc3nc(C)cs3)c2)cc1,-15%,0.2,6,.,2.5,.,97*
CCCCCCC1(C)NC(=O)N(C(C)C(=O)Nc2ccc(N3CCOCC3)cc2)C1=O (centres undefined),13%,-2.1,11,.,0.7,.,57
CC(=O)c1ccc(OCCCC(=O)Nc2nnc(C3CC3)s2)cc1,-12%,-2.2,-8,.,-0.2,.,-5
